# From PubChem
# Sa RN4220 lethal: growth inhibition of S. aureus RN4220, primary screen, OD600; AID 1259311, 2017; 16 h; 330,000 tested, 0.33% active; inhibition, % (no concentration beside the values);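 active = z-score of -3 or lower and OD600 up to 0.18 on both plates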;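 note: plate controls were untreated cells for no effect and reference antibiotic for full effect; stock transfer was 100 nL into about 80 µL; one replicate is shown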
# PrP UTR inh: inhibition of PrP 5' UTR reporter expression | inhibition, % (no concentration beside the values) | cell-based PrP 5' UTR mRNA reporter, plate reader | 340,000 tested, 0.35% active;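 active = every replicate at 50% or more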;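 note: 0 = median of the neutral control wells; tested in H4 reporter cells; numbers are from one replicate; inactives centre near -14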
# BJeLR lethal: MLPCN primary cell-based screen for lethality selective to Ras in HRASV12 cells; 300,000 tested, 0.17% active; inhibition, % (no concentration beside the values); BJeLR (HRASV12) viability, CellTiter-Glo ATP luminescence, 48 h; reference of the scale not given here; AID 1554, 2009;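 active = replicate mean above 50%; inconclusive = above 50% but judged a plate artefact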;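 note: 50 nL library stock added to about 25 µL; numbers are from one replicate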
# Mtb hypoxia inh: PubChem AID 1159583. M. tuberculosis hypoxia-regulated fluorescent reporter, fluorescence. fluorescence inhibition, % (concentration not given with the values). 300,000 tested, 0.1% active;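 active = 35 to 45% if threefold the growth effect, above 45% if 1.5-fold the growth effect; inactive = the rest, general growth blockers included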;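 note: wells of about 50 µL received 100 nL stock; 0% = vehicle wells and 100% = reference inhibitor wells; whole bacteria with a GFP reporter of the hypoxia response; strong numbers were not always called active; many hits fall short of the cut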
# Autofluor counter: counter-screen for toxin protease inhibitors: compound fluorescence. 360,000 tested, 3.1% active. compound autofluorescence counterscreen, microsphere flow cytometry; stronger effect = higher value. AID 624483. fluorescence intensity (no concentration beside the values);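 active = at least 3 SD above the mean of all compounds, about 16000 in these data; inconclusive = too few beads counted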;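 note: 100 nL of 1 mM stock went into each well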
# Sa ugtP lethal: growth inhibition of ugtP-null S. aureus, primary screen, RN4220 ugtP deletion, OD600. growth inhibition, % (no concentration beside the values). 330,000 tested, 0.54% active. 16 h; some inactives read as strong as hits. AID 1259309, 2017;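 active = z-score under -3 and OD600 up to 0.15 on both plates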;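 note: plate controls were untreated wells for no effect and antibiotic for full effect; wells of about 80 µL received 100 nL stock; the first replicate is given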
# Mtb hypoxia inh growth: recorded beside Mtb hypoxia inh, whose call it bears; growth inhibition, %; measured here: M. tuberculosis growth (absorbance);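 0% = vehicle and 100% = reference antibiotic; read after six days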
# * = called active by the depositor; ? = inconclusive; . = not tested or not shown.
SMILES,Sa RN4220 lethal,PrP UTR inh,BJeLR lethal,Mtb hypoxia inh,Mtb hypoxia inh growth,Autofluor counter,Sa ugtP lethal
CC(=O)NC12CC3CC(C1)CC(C(=O)N1CCN(S(=O)(=O)c4ccc(Cl)s4)CC1)(C3)C2,0.4,-6,8,-12,-4,6574,-4
CCCCCCCCNC(=O)/C(C#N)=C/c1ccccc1[N+](=O)[O-],67,-5,1,-12,-5,1924,91*
O=C(COC(=O)c1cccc(Br)c1)NCc1ccco1,-1.4,-8,.,-3,5,3732,3
CCOC(=O)Cc1csc(SCC(=O)N(CC(C)C)c2c(N)n(Cc3ccccc3)c(=O)[nH]c2=O)n1,4.9,-21,6,6,4,5476,4
Cc1nc2ccccc2c(=O)n1NC(=O)c1ccccc1,9.2,-18,5,16,7,3772,15
CCc1cc(=O)oc2cc(C)cc(OC(C)C(=O)NC(Cc3c[nH]c4ccc(O)cc34)C(=O)O)c12 (stereo not drawn),2.3,-16,7,.,.,5432,4
COCCCN1C(=O)C(=O)/C(=C(/O)c2ccc(OC(C)C)cc2)C1c1ccncc1 (stereo not drawn),4.4,1,5,-1,-10,4544,6
C=C1SC(=Nc2c(C)cccc2Cl)N(C(=O)c2sc3ccccc3c2Cl)C12CCCCC2,-4.2,-30,-3,1,-1,3575,12
CC(C)C[C@H]1CN=C(Nc2ccccc2)N1CC1CCCCC1,.,-12,1,.,.,3744,.
CCc1noc(C)c1C(=O)NNC(=O)c1nn(C)c(=O)c2ccccc12,6.9,.,.,11,6,?,10
Cc1[nH]c(C)c(S(=O)(=O)N2CCN(c3ccccc3)CC2)c1C(=O)N1CCCC1,4.8,6,2,0,4,4695,8
CCCc1n[nH]c(=O)c2c1nnn2Cc1ccccc1,3.7,-13,2,0,-1,4330,10
CCN1CCCC1CN(Cc1cc2ccc(C)cc2[nH]c1=O)C(=S)Nc1ccccc1OC (stereo not drawn),3.8,-27,-6,2,3,4023,3
O=C(O)c1ccc(O)cc1O,2.1,-14,.,-4,-5,6010,4
CC(=O)Nc1ccc(/C=C2\Sc3ccccc3C2=O)cc1,3.3,-8,-7,-4,-5,6961,-4
OCCOCCNc1ncnc2sc(-c3ccccc3)cc12,0.9,-20,-12,.,.,3898,-8
COc1ccc(N2C(=O)C3C(c4ccc(C(=O)O)cc4)NC(Cc4ccccc4)(C(=O)O)C3C2=O)c([N+](=O)[O-])c1 (stereo not drawn),-1.6,-8,-3,-3,-5,2608,-3
CCOC(=O)N1CCN(S(=O)(=O)c2cc(C)c(C)cc2C)CC1,1.6,-16,-5,.,.,3809,9
COc1ccc(NC(=O)N(C)CC2Oc3ccc(NC(=O)NC(C)C)cc3CC(=O)N(C(C)CO)CC2C)cc1 (stereo not drawn),-0.1,.,.,-1,10,.,-10
Cc1ccc(C)c(OCC(=O)NCCNC(=O)COc2cc(C)ccc2C)c1,11,-19,-4,4,8,5950,-6
CC(=O)c1cccc(NC(=S)NC(=O)c2ccccc2)c1,3.7,-56,-9,7,3,2371,-13
NC(=O)CSc1oc(-c2ccc(F)cc2)nc1S(=O)(=O)c1ccccc1,2.2,-31,-4,6,1,4055,0
O=C1OCc2cccc([N+](=O)[O-])c21,-2.9,-20,-4,0,-3,2608,6
COC(=O)c1sccc1S(=O)(=O)Nc1ccc(C)cc1,0.7,-12,-1,-4,4,3986,-2
Cc1ccc(Nc2ccc(C(=O)N3CCCC3)cn2)c(C)c1,0.1,-30,5,.,.,2949,-1
SMILES,Sa RN4220 lethal,PrP UTR inh,BJeLR lethal,Mtb hypoxia inh,Mtb hypoxia inh growth,Autofluor counter,Sa ugtP lethal
Cc1cc2nc(N)sc2cc1C,-9.8,-79,-8,4,0,3399,4
Cc1cccc(C(=O)Nc2ccccc2C(=O)NCc2ccco2)c1,2.8,-5,-6,-1,6,?,-1
Cc1ccccc1/C(N)=N/O,3.7,-16,-2,-3,6,2518,2
Cc1ccc(C)c(NC(=O)CSc2nnc(NC(=O)C3CC3)s2)c1,5.0,-18,1,-1,11,5613,-4
CN1CCc2c(sc(NC(=O)Cc3ccccc3)c2C#N)C1,-13,-15,3,10,7,4769,6
COc1ccc(/C=C2\SC(=S)N(C(C(=O)O)c3ccccc3)C2=O)c(OC)c1 (stereo not drawn),15,-14,7,13,4,4567,23
Cc1cc(C(=O)COC(=O)Cc2n[nH]c(=O)c3ccccc23)c(C)n1-c1ccc2c(c1)OCCO2,-4.6,-4,0,-6,10,2494,-7
COc1ccc(C(C)NC(=O)Cc2cccs2)cc1 (stereo not drawn),4.4,-5,-8,.,.,3063,16
O=S(=O)(c1ccc(Oc2ccc3oc4ccccc4c3c2)nc1)N1CCCC1,-0.2,-16,0,3,3,5458,-3
Cc1ccc(NC(=O)C(C)c2ccc(-c3ccccc3)c(F)c2)cc1 (stereo not drawn),-6.0,-15,5,11,16,2530,2
C=CCC1(CN2CCCC2=O)C(=O)NC(=O)NC1=O,1.2,-3,-10,6,2,3391,-1
CCCC(=O)n1nc(-c2cccnc2)nc1NCc1ccccc1,7.9,-8,-8,5,13,4541,8
O=C(COc1ccc2ccc(=O)oc2c1)Nc1ccc(N2CCOCC2)cc1,0.3,-13,-5,2,8,1846,-3
Cc1ccc(NC(=O)C[n+]2ccccc2)cc1[N+](=O)[O-],6.2,-17,1,0,7,4400,3
Cc1ccc(S(=O)(=O)N2CCN(C)CC2)c(C)c1,6.0,-15,-5,3,8,5443,5
COc1ccc(CC(=O)NCc2ccc(-n3cccc3)cc2)cc1OC,-5.2,-12,34,8,9,3539,7
COc1ccc(Oc2nc(C)cc(C)c2S(=O)(=O)c2ccc(C)cc2)cc1,-10,-13,0,0,7,3384,3
Cc1cccc(C)c1NC(=O)N1CCC(c2nc3ccccc3o2)CC1,1.5,-19,1,5,4,23165*,3
CCCCN(CCCNC(=O)C1CCCN(S(=O)(=O)CCC)C1)Cc1ccccc1 (stereo not drawn),0.9,-12,0,1,3,3517,8
C(=N\NC1=Nc2cccc3cccc1c23)/c1cccnc1,.,-110,-3,.,.,4597,.
CCc1ccc(OCCOCC(O)CN2CCN(Cc3ccc(Cl)cc3)CC2)cc1 (stereo not drawn),-2.0,-17,-9,9,10,2003,-20
COc1ccc(CN(C(=O)CN2C(=O)c3ccccc3S2(=O)=O)C(C(=O)NCC2CCCO2)c2ccncc2)cc1 (stereo not drawn),0.2,-21,4,11,8,2006,10
NC(=NOC(=O)c1cccc(Cl)c1)c1ccncc1,6.1,.,.,5,-6,.,-1
CCC1CCCCN1CCNC(=O)C1CCN(S(=O)(=O)c2c(C)noc2C)CC1 (stereo not drawn),-2.1,-2,8,.,.,5052,3
CC1Sc2ccc(C(=O)Nc3cc(S(C)(=O)=O)ccc3Cl)cc2NC1=O (stereo not drawn),6.9,-10,.,7,7,3697,1
SMILES,Sa RN4220 lethal,PrP UTR inh,BJeLR lethal,Mtb hypoxia inh,Mtb hypoxia inh growth,Autofluor counter,Sa ugtP lethal
COc1ccc(C(=O)Nc2c(N)nc(SCC(=O)Nc3ccc(NC(C)=O)cc3)[nH]c2=O)cc1OC,2.0,-10,-3,9,-5,6117,2
Cc1cccc(/C(N)=N/OC(=O)c2cccc3ccccc23)c1,.,-54,-3,.,.,5963,.
Fc1ccccc1NC(=S)N1CCN(Cc2ccc3c(c2)OCO3)CC1,2.6,-14,3,1,1,3613,1
COc1ccc(Cl)cc1NC(=O)CN(C)C(=O)C12CC3CC(CC(Cl)(C3)C1)C2,-1.5,-3,4,2,0,4638,-7
C/C(=N\NC(=O)c1nnn(-c2nonc2N)c1C(C)C)c1ccc2ccccc2c1,.,-8,12,.,.,4204,.
Cc1cc2c(c(=O)o1)C(C(C)C)C(C#N)=C(N)O2 (stereo not drawn),0.9,-19,1,1,4,4029,0
CCn1nc(C)c(CN2CCCCC2C(=O)Nc2ccc(Oc3cccnc3)cc2)c1C (stereo not drawn),4.6,-29,3,-3,-4,4278,9
Cc1nnc(NC(=O)CCC(=O)NCc2ccco2)s1,-13,-9,-3,19,5,2167,-8
Cc1cc(SCC2=NNC(=O)C2)c(Cl)cc1Cl,4.3,-14,1,-3,-8,.,2
Cc1nc(SCC(=O)N2CCc3ccccc3C2)c2c(C)c(C)sc2n1,4.3,-20,0,5,13,5872,3
CN1CCN(C2=C(Cl)C(=O)N(c3ccc(Cl)cc3)C2=O)CC1,-1.7,-15,5,-10,4,7133,-11
COc1ccc(N2C(=O)[C@@H]3[C@H](C2=O)[C@H]2C=CC=NN2[C@@H]3C(=O)Nc2ccc(Cl)cc2)cc1,4.5,.,10,-2,-1,3444,-3
NCC(=O)N1CCC(C(=O)N[C@@H](Cc2c[nH]c3ccccc23)C(=O)O)CC1,0.5,-21,-5,0,7,3661,-2
Cc1cc2c(NC(=O)Nc3ccc(C(F)(F)F)cc3)cccc2nn1,-0.1,-26,-2,-6,-5,4633,-27
CC1=N/C(=C\c2ccc3c(c2)OCO3)C(=O)N1c1ccc(C(=O)O)cc1,0.0,-2,-8,-3,3,2350,4
COc1ccc(N=CC=C2OC(C)(C)C(C)(C)O2)cc1OC,1.5,-28,-6,-3,8,3705,-4
S=c1nc(Cc2ccccc2)[nH]c2ccccc12,-2.0,1,-9,12,1,15764,-3
CCOC(=O)N1CCN(c2c(NCCc3ccc(OC)c(OC)c3)c(=O)c2=O)CC1,3.0,-25,4,7,3,5944,10
CCN(CC)C(=O)c1csc(Nc2ccc(C)cc2)n1,4.0,-28,.,19,1,11087,-9
Cc1ccc(NC(=O)CCc2c(C)nc3ncnn3c2C)nc1,3.9,-29,-4,6,9,5030,1
O=C(CNC(=S)N(Cc1ccccc1Cl)C1CCCC1)NCCCN1CCOCC1,-0.4,-33,8,-2,11,4935,7
Cc1ccc(-n2c(C)cc(C=c3sc4nc5ccccc5n4c3=O)c2C)cc1,3.5,.,.,10,7,.,9
O=C(c1ccc(Cl)c([N+](=O)[O-])c1)N(Cc1ccc(Cl)cc1)C1CCS(=O)(=O)C1 (stereo not drawn),-1.4,-17,.,-7,1,2218,0
Cc1nc2ccc(C(=O)N3CCCC(CO)(Cc4ccc(F)cc4F)C3)cc2nc1C (stereo not drawn),2.4,5,11,1,5,6056,5
CCN(CC)S(=O)(=O)c1ccc(OC)c(NC(=O)Cc2cccs2)c1,1.2,-8,-1,-4,2,4389,2
SMILES,Sa RN4220 lethal,PrP UTR inh,BJeLR lethal,Mtb hypoxia inh,Mtb hypoxia inh growth,Autofluor counter,Sa ugtP lethal
CC(=O)n1nc(-c2ccccc2)cc1-c1ccccc1,14,-93,0,-1,10,4610,-4
Cc1[nH]c(=O)[nH]c(=O)c1S(=O)(=O)N1CCC(C(=O)N2CCN(Cc3ccccc3)CC2)CC1,4.2,-17,-1,.,.,2554,4
C=CCN=c1sc(C(=O)OC)cc(=O)n1CC=C,6.5,-32,-4,12,3,10637,12
c1ccc(COc2ccc(OCCN3CCCCC3)cc2)cc1,.,-22,-3,.,.,7521,.
O=C1C2C3C=CC(C2C(=O)N1CCCO)C1C2C(=O)N(CCCO)C(=O)C2C31 (stereo not drawn),2.8,-22,7,-1,6,21305*,3
O=C(Cn1c(=O)oc2cc(S(=O)(=O)N3CCOCC3)ccc21)N1CCc2ccccc2C1,4.5,-5,.,6,5,5439,14
COc1cccc(/C=N/NC(=O)CN2CC(c3ccccc3)CC2=O)c1O (stereo not drawn),.,-7,-14,.,.,2015,.
